S1P2 agonist: S1P2 receptor agonists, primary screen, cell-based | Sphingosine 1-phosphate receptor 2 (Homo sapiens), O95136 | S1P2-expressing cell line, agonist reporter read-out | activation, % at 4.5 µM | 97,000 compounds, 0.46% hits | AID 729, 2007; in the data active = activation above about 16%;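 note: 0% = vehicle low control and 100% = maximal reference agonist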
S1P2 antag: human S1P2 receptor antagonists, primary screen, cell-based. inhibition, % at 5 µM. 97,000 compounds, 0.21% hits. cell-based S1P2 antagonist assay, inhibition at 5 uM. AID 736, 2007; in the data active = inhibition above about 45%;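 note: CRE beta-lactamase reporter cells expressing human S1P2 stimulated with S1P; 0% = agonist at EC80 alone and 100% = agonist plus reference antagonist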
hDAT+cocaine: changed hDAT dopamine uptake under cocaine IC80, either direction, primary screen, cocaine antagonist project, cell-based, LLC-PK1 hDAT, [14C]-dopamine uptake, MLSMR. LLC-PK1 hDAT cells, [14C]-dopamine uptake with cocaine IC80; actives deviate in either direction. B-score at 10 µM. 110,000 compounds, 1.3% hits;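 active = Z score or B-score, a plate-position-corrected score, falls beyond the plate's 99.7% confidence bounds, in either direction; inactive = both scores lie inside the 99.7% bounds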;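 note: scored against the spread of the other compound wells on the same plate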
PostGolgi ctrl: growth inhibition of yeast control strain, primary screen, counter-screen for post-Golgi transport modulator project; efflux-deficient yeast background strain, growth absorbance A615, 16 h; inhibition, % at 10 µM; 98,000 compounds, 5% hits; AID 738, 2007
PostGolgi yeast: phenotypic screen on post-Golgi transport, primary screen. post-Golgi transport phenotypic cell assay. inhibition, % at 10 µM. 98,000 compounds, 0.9% hits. AID 739, 2007;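 note: yeast cells grown in 1536-well plates; yeast grown about 18 h at 30C before absorbance read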
The depositor's hits bear a star. Cut-off read from the data, not from the text of the source, unless noted: active = inhibition above about 30%; inactive = the rest. This is a subset (hit frequency here may not be typical).

SMILES | S1P2 agonist | S1P2 antag | hDAT+cocaine | PostGolgi ctrl | PostGolgi yeast
O=C(Nc1ccc(F)cc1)N1CC2CC(C1)c1cccc(=O)n1C2 (stereo not given) | -5.1 | 4.5 | -1.14 | -6.3 | 2.2
O=c1[nH]c2c(c(=O)n1C1CCCCC1)CCC2 | 1.1 | 2.1 | 0.114 | 2.8 | 2.2
CCCC[n+]1cc(/N=C(\[O-])OC)on1 | -0.8 | -8.3 | 0.351 | -3.5 | -0.2
CCCC1=C(C(=O)OCC)C2(C(=O)Nc3ccccc32)C(C#N)=C(N)O1 (stereo not given) | -3.1 | 16.4 | -0.88 | -3.4 | -10.1
OC(Cn1c2ccccc2c2ccccc21)C[n+]1ccccc1 (stereo not given) | -10.8 | 20.1 | -1.45 | 5.9 | -15.8
COc1cc2ccccc2cc1C(=O)Nc1ccc(Cc2ccncc2)cc1 | -1.5 | 0.0 | 0.153 | 22.6 | -4.9
Cc1cc(Cl)ccc1OC(C)C(=O)O (stereo not given) | -10.0 | -4.2 | -1.47 | 1.6 | -17.5
O=P(C(Cl)Cl)(N1CCCCC1)N1CCCCC1 | -4.8 | 3.0 | -0.871 | 0.6 | -2.6
CCCc1nc2ccccc2c(=O)n1-c1ccc(OC)cc1 | -1.9 | 11.2 | -0.00813 | 7.8 | -1.0
C=CCN1C(=O)c2ccccc2Sc2ccc(C(=O)N3CCC4(CC3)OCCO4)cc21 | -1.2 | -2.1 | 1.28 | 7.3 | 1.5

Shown with two lines to a compound: 5 of the compounds above.
Screens in order: S1P2 agonist | S1P2 antag | hDAT+cocaine | PostGolgi ctrl | PostGolgi yeast
O=C(Nc1ccc(F)cc1)N1CC2CC(C1)c1cccc(=O)n1C2 (stereo not given)
 : -5.1 | 4.5 | -1.14 | -6.3 | 2.2
O=c1[nH]c2c(c(=O)n1C1CCCCC1)CCC2
 : 1.1 | 2.1 | 0.114 | 2.8 | 2.2
CCCC[n+]1cc(/N=C(\[O-])OC)on1
 : -0.8 | -8.3 | 0.351 | -3.5 | -0.2
CCCC1=C(C(=O)OCC)C2(C(=O)Nc3ccccc32)C(C#N)=C(N)O1 (stereo not given)
 : -3.1 | 16.4 | -0.88 | -3.4 | -10.1
OC(Cn1c2ccccc2c2ccccc21)C[n+]1ccccc1 (stereo not given)
 : -10.8 | 20.1 | -1.45 | 5.9 | -15.8

Filtered by structure, the entries above with an aryl methoxy group (2)
SMILES | S1P2 agonist | S1P2 antag | hDAT+cocaine | PostGolgi ctrl | PostGolgi yeast
COc1cc2ccccc2cc1C(=O)Nc1ccc(Cc2ccncc2)cc1 | -1.5 | 0.0 | 0.153 | 22.6 | -4.9
CCCc1nc2ccccc2c(=O)n1-c1ccc(OC)cc1 | -1.9 | 11.2 | -0.00813 | 7.8 | -1.0
